# Assay outcomes from PubChem.
# Mtb bLac sens: beta-lactam sensitization of Mtb H37Rv; hit rate 0.27% among 330,000; inhibition, % at 25 µM; M. tuberculosis H37Rv growth with meropenem, percent inhibition; hits of this screen are not shown here;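 active = about 74% or more and at least 40 points above the plate without the antibiotic, then above 30% in a dose series; inconclusive = first-round hits that could not be retested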;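 also: growth measured after seven days incubation then overnight dye step; 0% = bacteria only wells and 100% = bacteria with antibiotic; twin plates without the antibiotic show which effects depend on it; some results filed as inactive read as strong as hits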
# Arbovirus inh: arbovirus infection inhibition. hit rate 0.37% among 200,000. inhibition, % at 10 µM. arbovirus infection cell-based antiviral screen;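 active = inhibition from about 30%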;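 also: bluetongue infection of BSR cells; cell survival read as ATP light after 72 h; 0% = infected wells without compound and 100% = uninfected wells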
# RecA splice inh: blocks M. tuberculosis RecA intein splicing; P9WHJ3; cell-free RecA intein splicing, fluorescence; inhibition, %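 (about 9 µM by stock and volumes)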; hit rate 0.75% among 290,000; AID 2221; in the data active = inhibition above about 30%; inconclusive = no clear call, values can overlap the other calls;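 also: 0% = vehicle wells and 100% = reference inhibitor control wells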
# Target sequence (P9WHJ3 whole entry, looked up, canonical isoform): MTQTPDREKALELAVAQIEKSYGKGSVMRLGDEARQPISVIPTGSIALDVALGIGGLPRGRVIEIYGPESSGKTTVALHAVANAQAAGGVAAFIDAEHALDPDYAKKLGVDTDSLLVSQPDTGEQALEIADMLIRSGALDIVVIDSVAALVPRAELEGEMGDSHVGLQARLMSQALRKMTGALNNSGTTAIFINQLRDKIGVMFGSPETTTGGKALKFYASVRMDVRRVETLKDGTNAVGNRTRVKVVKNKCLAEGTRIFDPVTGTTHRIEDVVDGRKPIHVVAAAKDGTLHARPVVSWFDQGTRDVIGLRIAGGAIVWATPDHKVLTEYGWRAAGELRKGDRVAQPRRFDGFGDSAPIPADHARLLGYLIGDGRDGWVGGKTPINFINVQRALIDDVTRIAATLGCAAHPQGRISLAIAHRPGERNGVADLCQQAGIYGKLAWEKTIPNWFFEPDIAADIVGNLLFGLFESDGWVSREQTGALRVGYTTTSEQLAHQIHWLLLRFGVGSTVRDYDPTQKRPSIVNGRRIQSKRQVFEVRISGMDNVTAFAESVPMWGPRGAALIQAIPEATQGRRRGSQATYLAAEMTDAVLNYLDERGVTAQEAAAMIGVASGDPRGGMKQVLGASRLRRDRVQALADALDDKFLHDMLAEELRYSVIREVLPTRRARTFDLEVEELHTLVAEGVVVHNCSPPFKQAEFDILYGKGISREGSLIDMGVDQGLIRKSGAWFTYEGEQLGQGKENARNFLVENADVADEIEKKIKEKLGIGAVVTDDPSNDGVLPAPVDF
# Mtb growth: M. tuberculosis H37Rv growth inhibitors, H37Rv strain (AID 1626); M. tuberculosis H37Rv growth inhibition; higher % means a stronger effect; inhibition, % at 10 µM; hits with a dose series show IC50 in µM; hit rate 0.95% among 220,000;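 active = confirmed in a dose series; inconclusive = inhibition above 80% but not taken into the dose series; inactive = below 80% or under 30% at every dose of the series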;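 also: bacteria incubated seven days before Alamar blue readout; 0% = bacteria only wells and 100% = bacteria with antibiotic wells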
# YopH inh: blocks Yersinia enterocolitica YopH tyrosine phosphatase. hit rate 0.16% among 140,000. fluorescence Ex485/Em525. inhibition, %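 (about 10 µM by stock and volumes)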. AID 898;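 active = inhibition of 50% or more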;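 also: controls were vehicle for no effect and minimum signal wells for full effect; inactives centre near -20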
# Arbovirus inh repeat: further read-out of Arbovirus inh, marked with its call; inhibition, %; measured here: 10K subset replicate screen; many hits read low in the repeat;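 first of two repeat runs on a subset; 0% = infected and 100% = uninfected wells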
# Starred values were filed as active, the others as inactive; ? = inconclusive; . = not tested or not shown; & = joins results of further samples. A portion of the library; count on the stated rates, not on these rows.
SMILES,Mtb bLac sens,Arbovirus inh,RecA splice inh,Mtb growth,YopH inh,others
CC(=O)c1cccc(NC(=O)CN(C2CCCCC2)S(C)(=O)=O)c1,-5.7,1.5,.,-2.5%,-29.3,
O=C(Oc1ccc(Br)cc1)c1cccnc1,1.2,.,2.3,.,.,
Cc1ccc(Sc2ncccc2C(=O)O)cc1,-2.4,-6.1,-2.1,-1.6%,-11.0,
CCCCCC1CCC(c2n[nH]c(=S)n2C)CC1 (centres undefined),-4.1,-0.6,-2.4,5.6%,.,
CC(C)c1nnc(NC(=O)CSc2ccccc2)s1,-1.3,12.0,4.9,-3.9%,3.8,
Cc1cc(OC(=O)c2cccc(Br)c2)c([N+](=O)[O-])c(=O)[nH]1,-0.5,.,-2.1,.,.,
COc1ccc(CCNC(=O)CCNC(=O)c2ccc([N+](=O)[O-])cc2)cc1,1.1,.,0.9,.,.,
CCn1c(CNc2ccccc2Cl)nnc1SCCN1CCCCC1,?,-3.4,-1.6,-2.7%,-30.9,
O=C(COC(=O)C1CCC1)Nc1ccccc1Sc1ccccc1,1.7,-5.3,3.2,7.2%,-33.0,
COc1ccc2nc(/N=C/c3c(C)[nH]n(-c4ccc(C)cc4)c3=O)sc2c1,?,-15.6,0.9,33.0%,-37.8,
CC(C)(C)c1ccc(C(=O)NCC(=O)N/N=C/c2cccs2)cc1,0.0,.,0.5,.,.,
O=C(CSCc1ccc(Cl)cc1)N1CCOCC1,1.2,-9.0,-1.6,3.2%,-25.0,
O=C(CN(C(=O)CCC(=O)Nc1nccs1)c1cccc(C(F)(F)F)c1)NCC1CCCO1 (centres undefined),-2.8,.,-2.3,.,.,
CCOC(=O)N1CCN(C(=O)CSc2ccc(-c3ccc(OC)c(OC)c3)nn2)CC1,1.8,-0.4,0.9,-0.3%,.,
Cc1ccc(NC(=S)N2CCN(Cc3ccccc3)CC2)cc1,-9.2,22.3,4.8,-1.4%,.,
COc1cc(/C=N/NC(=O)c2cccc([N+](=O)[O-])c2)ccc1O,16.7,-0.6,-4.6,0.0%,.,
NS(=O)(=O)c1ccc(CCNC(=O)c2coc3ccccc3c2=O)cc1,-2.8,.,-6.8,.,.,
OC1(CNCc2cn[nH]c2-c2cc3ccccc3o2)CCCCC1,-11.0,-8.6,-1.7,-6.2%,.,
O=c1c2cc([N+](=O)[O-])ccc2nc(CN2CCN(c3ccccn3)CC2)n1-c1ccccc1F,35.8,4.2,4.8,1.1%,.,
O=C1CNC(=O)/C(=C/c2cccs2)N1,-6.3,-4.0,-5.0,1.6%,.,
Cc1cc([N+](=O)[O-])cc2c1-c1ncccc1C2=Nc1ccccc1,3.2,-1.6,-9.3,5.2%,-19.6,
Cc1c(NC2=CC(=O)CC(C)(C)C2)c(=O)n(-c2ccccc2)n1C,-4.5,2.6,1.9,5.8%,.,
COc1ccccc1N1CCN(CCCNC(=O)C2CCCN(c3ncnc4c3nc3n4CCCCC3)C2)CC1 (centres undefined),12.1,.,0.8,.,.,
Cc1ccc(NC(=O)CSc2nc(=O)n(CCN(C)C)c3c2CCCC3)c(C)c1,-0.4,.,3.0,.,.,
O=C(O)Cn1cc(C(=O)c2ccco2)c2ccccc21,?,12.7,-53.6,-19.2%,-39.8,

# Among those listed so far, these contain a Cl atom.
SMILES,Mtb bLac sens,Arbovirus inh,RecA splice inh,Mtb growth,YopH inh,others
CCn1c(CNc2ccccc2Cl)nnc1SCCN1CCCCC1,?,-3.4,-1.6,-2.7%,-30.9,
O=C(CSCc1ccc(Cl)cc1)N1CCOCC1,1.2,-9.0,-1.6,3.2%,-25.0,

# More records follow:
SMILES,Mtb bLac sens,Arbovirus inh,RecA splice inh,Mtb growth,YopH inh,others
c1ccc(-c2cc(-c3nnc4n3N=C(c3ccc5ccccc5c3)CS4)[nH]n2)cc1,97.7,-24.3,1.4,47.0%,-4.3,
CCOc1ccccc1C(=O)NCC(=O)O,-7.2,3.4,-1.0,-6.5%&-2.6%,.,Arbovirus inh repeat=1.7
COc1ccc(CCNC(=O)c2cnn3ccccc23)c(OC)c1OC,2.0,6.8,0.4,1.1%,-2.3,Arbovirus inh repeat=4.4
Cc1ccc(S(=O)(=O)N2CCN(c3ncnc4c3cnn4-c3ccccc3)CC2)cc1,-6.5,1.1,-1.5,5.0%,-7.6,
CSc1ccccc1NC(=O)CSCc1ccc(Br)cc1,.,-4.7,5.6,.,-17.2,
Cc1nc2c(-c3ccc(F)cc3)c(C)nn2c(C)c1CCC(=O)N1CCOCC1,9.3,-0.6,-4.3,5.8%,-3.9,
CC(=O)Nc1ccc(SCC(=O)OCC(=O)NC(=O)NCCC(C)C)cc1,3.6,0.8,2.5,-4.5%,.,
CCOc1ccc(/C=N/NC(=O)NC23CC4CC(CC(C4)C2)C3)cc1O,18.3,.,0.8,.,.,
CCc1cc2cccc(C)c2nc1SCC(=O)NC1CCCC1,45.9,.,-2.8,.,.,
CC(C)CNC(=O)CCc1nc(-c2ccccc2)no1,4.5,.,-1.9,-9.5%,.,
CCOC(=O)c1ncn2c1C(=O)OC2(C)C,-0.5,-6.2,8.5,-4.4%,-35.6,
Cc1nn(Cc2ccccc2Cl)c(Cl)c1C(=O)OC(C(=O)NC(N)=O)C(C)C (centres undefined),-0.2,4.9,0.9,-0.2%,-32.0,
CC(C)(C)c1nc(N)nc(=O)[nH]1,-0.6,.,-0.5,0.7%,.,
NC(=O)C(c1ccc(F)cc1)c1ccc(C(=O)c2ccccc2)cc1 (centres undefined),-3.8,.,3.5,.,.,
N/C(=N\OC(=O)/C=C/c1ccccc1)c1cccnc1,-2.6,4.0,-1.7,1.3%,.,
Cc1cccc(NC(=O)c2cccc(S(=O)(=O)N3CCc4ccccc4C3)c2)n1,-14.4,.,0.6,.,.,
Cc1cc(C(=O)CN2C(=O)c3ccccc3C2=O)c(C)n1C1CC1,3.6,0.9,98.1*,-0.1%,-37.9,
Cc1cc(NS(=O)(=O)c2ccc(NS(=O)(=O)c3ccc(Br)cc3)cc2)no1,-17.0,.,-0.8,.,.,
CCCCCN=C(C)c1c(O)c2ccccc2oc1=O,4.1,-7.7,1.6,12.1%,-46.7,Arbovirus inh repeat=0.0
CC1CCN(CCCNC(=O)CN2C(=O)CSc3ccc(S(=O)(=O)N4CCC(C)CC4)cc32)CC1,5.0,.,5.8,.,.,
CC1(C)CC(NC(=O)COc2ccc([N+](=O)[O-])cc2)CC(C)(C)N1,-6.1,7.5,.,0.5%,.,
Nc1ccc(CCN2CCN(c3cccc(C(F)(F)F)c3)CC2)cc1,1.1,.,3.6,-4.9%,.,
CCCCOc1ccc(Cl)cc1CSc1nncn1N,-6.3,-7.0,1.8,-7.2%,5.6,
CC1CCCN(C(=O)COc2ccc3c(c2)OCO3)C1 (centres undefined),1.2,.,-3.0,.,.,
O=C(CSc1nnc(CNc2ccc(Cl)cc2)n1Cc1ccccc1)NCc1ccco1,-8.6,2.1,0.3,-5.4%,-42.1,

# Brought forward from above: two entries, followed by the next part.
SMILES,Mtb bLac sens,Arbovirus inh,RecA splice inh,Mtb growth,YopH inh,others
CC1CCCN(C(=O)COc2ccc3c(c2)OCO3)C1 (centres undefined),1.2,.,-3.0,.,.,
O=C(CSc1nnc(CNc2ccc(Cl)cc2)n1Cc1ccccc1)NCc1ccco1,-8.6,2.1,0.3,-5.4%,-42.1,
N#CC1(NC(=O)COc2ccc3oc4ccccc4c3c2)CCCCC1,33.9,7.1,-0.5,21.2%,-17.8,
CCC(C)(C)c1ccc(OC(=O)c2cccnc2Cl)cc1,11.7,.,9.3,.,.,
CC(C)(C)NC(=O)C(c1ccc(O)cc1)N(C(=O)CCC(=O)Nc1nccs1)c1ccc(F)cc1 (centres undefined),-4.7,2.9,-3.0,-4.0%,.,
CN(C)c1nc(-c2ccccc2)cc(C(F)(F)F)c1C#N,-7.7,-5.5,-13.9,-3.2%,-17.1,
COc1ccc(CCNCc2c(-c3ccccc3)n(C)c3ccccc23)cc1,23.8,.,9.8,.,.,
COCCCNC(c1ccccc1)c1ccncc1 (centres undefined),0.3,0.5,1.7,-3.8%,-47.3,
Nc1nonc1-n1nnc(C(=O)N/N=C/c2cc(Br)ccc2O)c1CSC1=NCCS1,2.9,-23.8,20.7,0.3%,-16.9,
CN1CN(C)C(c2ccncc2)=C1c1ccncc1,-0.4,.,0.6,10.0%,.,
CC(C)c1ccc(/C=C2\NC(=S)N(Cc3cccnc3)C2=O)cc1,-0.2,-5.3,.,7.5%,.,
COC(=O)c1nc(NC(=O)c2ccccc2Cl)n[nH]1,-1.6,3.3,10.4,-4.6%,-16.2,
Cn1c(SCC(=O)Nc2ccc(NC(=O)c3ccccc3)cc2)nnc1-c1ccncc1,3.8,.,-3.0,.,.,
COc1cccc(/C=N/NC(=O)CNC(=O)COc2cccc(C)c2)c1O,12.8,.,-5.1,-10.6%,.,
COc1ccc(N2CCN(C(=O)CCS(=O)(=O)c3ccc4c(c3)NC(=O)C(C)S4)CC2)cc1 (centres undefined),1.1,.,-1.2,.,.,
S=C(NCc1ccccc1)NCc1ccccn1,-2.6,.,1.0,1.7%,.,
Cc1cc(-n2c(SCc3ccccc3F)nc3n[nH]c(C)c3c2=N)ccc1Cl,4.2,-16.8,1.7,7.3%,.,
COc1ccc(/C=C2\SC(=S)N(C(C)C(=O)NC3C=CS(=O)(=O)C3)C2=O)cc1 (centres undefined),3.0,.,5.4,.,.,
CCOC(=O)Cc1nnc(Nc2ccc(C)cc2)c2ccccc12,1.7,-8.0,-0.1,2.6%,11.3,
O=C(Cc1ccc(F)cc1)N1CCN=C1SCc1ccc([N+](=O)[O-])cc1,2.8,-2.2,0.8,12.8%,-22.9,
COc1ccc(S(=O)Cc2ccc(C(=O)NCc3cccc(OC)c3)o2)cc1 (centres undefined),-4.2,.,3.8,.,.,
Cc1nc2[nH]c(=S)n(C)c(=O)c2nc1C,-3.8,5.3,-3.7,-8.1%,-26.4,
COc1ccc(CCNC(=O)c2ccc3c(c2)NC(=O)CS3)cc1OC,3.5,.,-1.2,.,.,
CSc1oc(-c2ccco2)nc1S(=O)(=O)c1ccc(F)cc1,1.7,3.2,0.9,2.4%,-32.6,
COc1ccc(NC(=O)CSc2nc3ncccc3[nH]2)cc1OC,-0.7,1.1,-1.5,-4.6%,-6.4,
COc1ccc2c(c1)OC1(C)CC2C(C(=O)c2ccccc2OC)C(=O)N1 (centres undefined),-4.5,-5.0,0.1,.,-23.0,Arbovirus inh repeat=-6.0
COc1ccc(C2CC(c3cccs3)=NN2C(=O)c2ccccc2)cc1OC (centres undefined),-5.7,.,1.0,.,.,
CC1(C)CC(C(CC(=O)N2CCCC2)Cc2ccccc2)CCO1 (centres undefined),-13.9,.,-1.2,4.6%,.,

# A draw from above in order of count of non-hydrogen atoms, smallest number first.
SMILES,Mtb bLac sens,Arbovirus inh,RecA splice inh,Mtb growth,YopH inh,others
S=C(NCc1ccccc1)NCc1ccccn1,-2.6,.,1.0,1.7%,.,
CN1CN(C)C(c2ccncc2)=C1c1ccncc1,-0.4,.,0.6,10.0%,.,
CSc1oc(-c2ccco2)nc1S(=O)(=O)c1ccc(F)cc1,1.7,3.2,0.9,2.4%,-32.6,
COc1ccc(NC(=O)CSc2nc3ncccc3[nH]2)cc1OC,-0.7,1.1,-1.5,-4.6%,-6.4,
Cc1cc(-n2c(SCc3ccccc3F)nc3n[nH]c(C)c3c2=N)ccc1Cl,4.2,-16.8,1.7,7.3%,.,
